Source: PubChem (SRMLSC)
H5N1 CPE: antiviral screen in MDCK cells, H5N1 avian flu | cytopathic effect, luminescence, 72 h; hits give high values; no value below 0 was filed and about half of the inactive calls have no number; reference of the scale not given here | inhibition, % at 50 µM | 96,000 tested, 0.07% active; in the data active = inhibition above about 25%
The depositor's hits bear a star; i = inactive. The list is partial; rates above refer to the full screens.

Molecule	H5N1 CPE
O=C1Nc2ccc(F)cc2C12Nc1ccccc1-c1nnc(SCc3ccccc3Cl)nc1O2 (stereo unspecified)	i
COc1ccc(C(CC(=O)O)NC(=O)COc2ccccc2)cc1 (stereo unspecified)	i
COc1cnc(-c2ccccn2)nc1Oc1ccccc1Cl	0.6
Nn1c(SCC(=O)Nc2cccc(F)c2)nnc1C1CCCCC1	i
CCc1nc(SCc2nc3ccccc3[nH]2)c2oc3ccccc3c2n1	0.2
O=C(NCCc1ccccc1)c1cnc2sccn2c1=O	1.3
CCOC(=O)C1=C(C)N=C2SC(C(=O)OC)=CC(=O)N2C1c1ccc(F)cc1 (stereo unspecified)	i
O=C(COC(=O)Cc1ccsc1)NCC1CCCCC1	2.0
CC(C)C(=O)Nc1ccc(NC(=O)c2cccnc2)cn1	i
Cc1cc(Cl)c(S(=O)(=O)N2CCSCC2)cc1OCC(N)=O	0.1
CCOCCn1c(SC)nc2c1c(=O)[nH]c(=O)n2C	0.3
CCCCNC(=O)c1onc(CSc2cc(C)ccc2C)c1C(=O)O	i
CS(=O)(=O)N(CC(=O)Nc1ccc(CC#N)cc1)c1ccc(C23CC4CC(CC(C4)C2)C3)cc1	11
CC1(C)NC(=O)N(CC(O)COc2ccc(-c3ccc(C#N)cc3)cc2)C1=O (stereo unspecified)	3.0
Cc1ccccc1S(=O)(=O)Nc1nc2ccccc2nc1NCCO	1.1
Cc1oc(=O)c(NC(=O)c2ccc(Cl)cc2)cc1C(=O)c1ccccc1	i
CCCCCCn1c(NCC)nc2c1c(=O)[nH]c(=O)n2C	0.3
Cc1ccc(C2N(c3ccc(Cl)c(Cl)c3)C(=O)C3CCCN32)o1 (stereo unspecified)	i
CCOC(=O)N1CCN(c2ccc(Cl)c(Cl)c2)CC1	i
COc1ccc(C2CC(=O)NC3=C2C(=O)CCC3)cc1Cl (stereo unspecified)	1.0
Cc1cc(C)cc(N(CC(=O)N2CC=C(c3ccccc3)CC2)S(=O)(=O)c2c(C)noc2C)c1	4.1
COc1ccc(CC(=O)N2CC(C)CC(C)C2)cc1OC (stereo unspecified)	0.3
O=C(c1nn2c(C(F)(F)F)cc(-c3ccco3)nc2c1Br)N1CCCc2ccccc21	3.8
COCCCNC(=O)c1cc2c(=O)n(C)c3ccccc3c2n1C	0.7
CCCC(=O)Nc1ccc(NC(=O)CCc2ccccc2)cn1	i
Cc1ccc(-n2nc3c(c2NC(=O)c2c(-c4ccccc4Cl)noc2C)CS(=O)(=O)C3)c(C)c1	0.3
O=C(c1ccco1)N1CCN(C(=O)c2oc(=O)c3ccccc3c2-c2ccccc2)CC1	1.6
O=C(Nc1nc2c(s1)C(=O)CCC2)c1ccccc1	0.4
CCN1CCN(CCCNC(=O)Cn2cc3c(n2)CCCC3)CC1	0.9
CCCC1=C(C(=O)OCC)C(c2cc(Cl)cc(OC)c2OCc2ccccc2)NC(=O)N1 (stereo unspecified)	i
CCOc1cccc(C(=O)Nc2cccnc2)c1	0.7
COc1ccc(/C=N/n2cnnc2SCc2ccc(OC)cc2)cc1	2.5
O=CNC1CCCc2c1[nH]c1ccc(Cl)cc21 (stereo unspecified)	0.3
COCCOC(=O)C1=C(C)NC2=C(C(=O)CCC2)C1c1ccc2c(c1)OCO2 (stereo unspecified)	1.1
CCN1CCN(C(c2cccs2)C(C)NS(=O)(=O)c2ccc(Br)cc2)CC1 (stereo unspecified)	0.2
Cc1cnc(C(=O)OCC(=O)NC(=O)NC(C)C)cn1	i
COc1ccccc1OC(C)C(=O)Nc1nc(-c2ccc(S(=O)(=O)N3CCOCC3)cc2)cs1 (stereo unspecified)	1.5
CCCCn1c(CN2CCN(C(=O)OCC)CC2)nc2c1c(=O)n(C)c(=O)n2C	i
Cc1cc(CCN2CCC(=O)NC2=S)ccc1OC(C)C	0.0
O=c1c2c(-c3ccccc3)csc2nc2n1CCC2	1.0

Looked up one by one from the entries so far:
Molecule	H5N1 CPE
O=C(NCCc1ccccc1)c1cnc2sccn2c1=O	1.3
CCOc1cccc(C(=O)Nc2cccnc2)c1	0.7
CC1(C)NC(=O)N(CC(O)COc2ccc(-c3ccc(C#N)cc3)cc2)C1=O (stereo unspecified)	3.0
CCOC(=O)N1CCN(c2ccc(Cl)c(Cl)c2)CC1	i

Continued:
Molecule	H5N1 CPE
COc1cccc(C2NC(CCSC)(C(=O)O)C3C(=O)N(C(C)C)C(=O)C23)c1O (stereo unspecified)	0.7
COc1ccc(Cl)cc1-c1nc(-c2ccc(Br)o2)no1	i
O=C(c1cccc(F)c1)N1CCN(C(=O)C2CC2)CC1	0.5
C=CCn1c(SCC(=O)Nc2sccc2C(N)=O)nc2sc(C)c(C)c2c1=O	2.8
Nc1ccc(S(=O)(=O)NNC(=O)C(=O)NNc2ccccn2)cc1	i
Cc1c(NC(=O)COC(=O)C(c2ccc(Cl)cc2)C(C)C)c(=O)n(-c2ccccc2)n1C (stereo unspecified)	i
CC(=O)c1c(C)[nH]c(C(=O)OCC(=O)NCCc2ccc(Cl)cc2)c1C	0.1
Cc1cccc(NC(=O)c2sc3nc(-c4ccccc4)cn3c2C)n1	i

Exported with each value named: 2 of the compounds above.
CC(=O)c1c(C)[nH]c(C(=O)OCC(=O)NCCc2ccc(Cl)cc2)c1C
  H5N1 CPE = 0.1

Cc1cccc(NC(=O)c2sc3nc(-c4ccccc4)cn3c2C)n1
  H5N1 CPE = i

(list continues)
Molecule	H5N1 CPE
Cc1ccc(C(=O)N(CC(=O)NC2CCCCC2)c2ccccc2C)s1	i
CCCS(=O)(=O)N1CCN(C(=O)COc2ccc(OC)cc2)CC1	0.4
CN(CC(=O)N1CCN(C2CCCCC2)CC1)S(=O)(=O)c1cccc2nsnc12	0.5
O=C1c2ccccc2C(=O)N1c1ccc(Cl)cn1	i
CC(C)c1ccc(OC(=O)NCCO)cc1	0.2
O=C(CN(c1ccc(Cl)c(Cl)c1)S(=O)(=O)c1ccccc1)N1CCc2ccccc2C1	i
CCOc1cc(C(=O)NCCOC)cc(OCC)c1OCC	i
COC(=O)c1cn(C(=O)c2ccc(Br)o2)c2ccccc12	i
Cc1nc(N2CCCC2)c2nnn(Cc3ccccc3Cl)c2n1	i
O=C(c1ccc(Cl)s1)N1CCOCC1	0.4
CC(C)(C)NC(=O)COc1ccc(CNCc2cccs2)cc1	1.3
CCOC(=O)c1ccc(NC(=O)C(CC)(CC)C(=O)OCC)cc1	1.0
Cc1csc(SCCn2c(N3CCN(c4ccccc4)CC3)nc3c2c(=O)[nH]c(=O)n3C)n1	i
Cc1cc(C)n(CC(O)COCc2ccccc2)n1 (stereo unspecified)	i
Cn1c(NCCCO)nc2ccccc21	0.8
c1ccc(N2CCN(c3ncnc4sc5c(c34)CCC5)CC2)cc1	2.9

Some values from the results shown:
CCCS(=O)(=O)N1CCN(C(=O)COc2ccc(OC)cc2)CC1 @ H5N1 CPE: 0.4
CC(=O)c1c(C)[nH]c(C(=O)OCC(=O)NCCc2ccc(Cl)cc2)c1C @ H5N1 CPE: 0.1
C=CCn1c(SCC(=O)Nc2sccc2C(N)=O)nc2sc(C)c(C)c2c1=O @ H5N1 CPE: 2.8
CCOCCn1c(SC)nc2c1c(=O)[nH]c(=O)n2C @ H5N1 CPE: 0.3

Further entries:
Molecule	H5N1 CPE
O=C(Oc1ccc(N(Cc2cccs2)C2=NS(=O)(=O)c3ccccc32)cc1)c1ccccc1F	i
COc1ccc(O)c(C(=O)CC(=O)c2ccc(F)cc2)c1	1.0
COC(=O)c1ccc(NC(C)=O)o1	0.0
CN(C)C1NC(=O)c2cc(-c3ccccc3)sc2N1 (stereo unspecified)	0.7
CCOC(=O)C(C)Sc1ncc(OC)c(=O)[nH]1 (stereo unspecified)	0.3
COc1ccccc1CNn1c(-c2cccc(C)c2)nc2ccccc2c1=O	1.7
CCN(CC)c1cc(C(F)(F)F)nc(-c2ccccn2)n1	i
CCOc1ccccc1Nc1nnc(SCC(=O)N2CCCC2)s1	0.2
CCc1nnc(NC(=O)CSc2nc3cc4c(cc3cc2C)OCCO4)s1	i
Cc1nc(C)c(C(=O)C2=C(O)C(=O)N(CCCn3ccnc3)C2c2ccc(Cl)cc2)s1 (stereo unspecified)	i
CCCc1cc(=O)[nH]c(SCC(=O)N(CC)Cc2ccccc2)n1	1.2
Cc1nnc(NC(=O)c2cccc(Br)c2)s1	5.1
Cc1ccc(NC(=O)Nc2sc(=S)n(C)c2C)cc1	i
CCOCc1nnc(NC(=O)CCc2ccccc2)s1	i
Oc1c(C(c2ccco2)N2CCC3(CC2)OCCO3)sc2ncnn12 (stereo unspecified)	0.6
Cc1nc(CCN2C(=O)c3ccccc3C2=O)cs1	i
Cc1ccc(S(=O)(=O)CC(C)(O)C(=O)Nc2cccc(C(F)(F)F)c2)cc1 (stereo unspecified)	i
CCn1c(=O)cc(SCC(=O)NCc2ccc(C)cc2)c2ccccc21	0.1
COc1ccc(/C=c2/sc3n(c2=O)C(c2ccccc2OC)C2=C(N=3)c3ccccc3CC2)cc1O (stereo unspecified)	0.1
CC1CN(C(=O)CN2C(=O)NC(C)(c3ccccc3)C2=O)CC(C)O1 (stereo unspecified)	i
CCC(=O)N1CCN(c2ccccc2NC(=O)COc2cccc(C)c2)CC1	0.3
CC(C)(C)NC(=O)COC(=O)c1ccc(O)cc1	i
O=C(Nc1ccc2c(c1)OCCO2)C(c1ccc(F)cc1)N1CCCCC1 (stereo unspecified)	0.4
O=C1/C(=C\Nc2ccccc2)CCN1c1ncccn1	i
O=C(CSCc1ccccc1)N/N=C/c1ccccc1OCc1ccccc1	i
COc1ccc(-c2c3c(nc4sc5c(=O)[nH]c(C)nc5c24)CCC3)cc1	1.3
O=C(Nc1ccc2oc(-c3cccnc3)nc2c1)c1cc2ccccc2o1	1.6
CCc1ccc(C(=O)c2cncc(Br)c2)cc1	i
Cc1ccc(S(=O)(=O)Cc2cn3cccnc3n2)cc1	0.4
O=C(Nc1cccc(Cl)c1)NC1(C(=O)NCc2cccs2)CCCCC1	0.5
COc1cc2c(c(OC)c1)C(c1cccc(OC)c1OC)CC(=O)N2 (stereo unspecified)	i
CCC(C)(C)n1nnnc1C(c1cc2cc(C)cc(C)c2[nH]c1=O)N1CCCC1 (stereo unspecified)	i
O=C1NC(c2ccc3c(c2)OCO3)Oc2ccccc21 (stereo unspecified)	i
c1ccc(-c2ccc(-n3ccnc3)cc2)cc1	i
COC(=O)c1c(N)c(C#N)c(C)n1-c1ccccc1	0.8
COC(=O)C1=C(C)N(c2cc(Cl)cc(Cl)c2)C(=O)C1	6.2
O=C(NCCCn1ccnc1)c1csc2ccccc12	1.8
Cc1noc(C(=O)Nc2cccnc2)c1Cl	i
CC1CCN(CCC(=O)N2CCCc3c2c(=O)oc2ccc(O)cc32)CC1	1.0
COc1ccc(-n2nc(C(=O)NCC(=O)N3CCN(c4ccccn4)CC3)c3ccccc3c2=O)cc1	i
Cc1cc(C(=O)CSc2nnc(-c3ccccc3)n2Cc2ccc3c(c2)OCO3)c(C)n1C	i
N#CC1=C(N)N(c2ccccc2Sc2ccccc2)C(=O)C1	i
CCN(CC)S(=O)(=O)c1cc(C(=O)Nc2cc(Cl)ccc2N2CCN(C)CC2)ccc1Cl	i
Cc1nc(SCC(N)=O)[nH]c(=O)c1Cc1ccc(OC(C)C)cc1	i
Cn1c(O)c(C=NCCN2CCN(C(=O)c3ccccc3)CC2)c(=O)n(C)c1=O	i
CCOc1nc(-c2ccc(C)cc2)ccc1-c1noc(-c2cccnc2)n1	i
CC(=O)Nc1cccc(NC(=O)c2sc3ncn(CC(=O)N4CCCCC4)c(=O)c3c2C)c1	0.2
CCOC(=O)c1ccc(NC(=O)CC2SC(=NC)N(C)C2=O)cc1 (stereo unspecified)	i
O=C(CSc1nnc(-c2ccc(Cl)cc2)n1Cc1ccco1)NCc1ccc2c(c1)OCO2	2.5
CCOC(=O)C1CCN(c2c(NCc3ccc(C(=O)NCCOC)cc3)c(=O)c2=O)CC1	0.0
CC1CCCN(C(=O)CN2CCN(C(=O)c3ccco3)CC2)C1 (stereo unspecified)	0.1
CCC(=O)N1c2ccccc2NC2=C(C(=O)CC(c3ccco3)C2)C1c1ccco1 (stereo unspecified)	2.4
COc1ccccc1N1CCN(C(=O)C(=O)N/N=C/c2cccc(O)c2)CC1	1.3
COC(=O)c1cc(OC)c(OC)cc1NC(=O)Nc1ccc(OC)cc1	i
O=C(CNC(=O)c1ccco1)NCC(=O)OCc1ccc(C(=O)Oc2ccc(Cl)cc2)cc1	i
C/C(=N\N=C(/N)SC1CC(=O)N(c2ccc(Br)cc2)C1=O)c1cccs1 (stereo unspecified)	i

The list goes on.
Molecule	H5N1 CPE
CNC(=O)C1CCC(=O)N1Cc1ccccc1Cl (stereo unspecified)	i
O=S(=O)(NCC(c1cccnc1)N1CCN(c2ccccc2)CC1)c1cc(F)ccc1F (stereo unspecified)	1.0
CCOC(=O)C1=C(C)Nc2ncnn2C1/C=C/c1ccccc1 (stereo unspecified)	0.7
CC(C)n1nnnc1-c1cccc(Cl)c1	i
CC1(C)Cc2c(c(N3CCOCC3)nc3sc(C(=O)N4CCCCC4)c(N)c23)CO1	2.4
CNc1nc(-c2ccc(Cl)cc2)cs1	i
C=CCSc1nsc(N)n1	0.8
O=C(NCC1CCCO1)c1onc(CSc2ccc(Cl)cc2)c1C(=O)O (stereo unspecified)	0.4
Cc1ccc(C(=O)/C=C/c2ccccc2)o1	0.9
Cn1nnnc1SCc1nnc(-c2ccc(F)cc2)o1	1.5
CC1CCN(S(=O)(=O)c2ccc(C(=O)Nc3sccc3C(N)=O)cc2)CC1	0.4
Cc1ccc(C(=O)NCc2ccc3c(c2)OCO3)cc1S(=O)(=O)N1CCOCC1	1.9
COc1ccc(-c2cc(C(F)(F)F)nc(SCC(=O)NCc3ccco3)n2)cc1OC	0.7
Cc1ccccc1CS(=O)(=O)Cc1ccc(C(=O)NCc2cccnc2)o1	0.9
COC(=O)c1[nH]c2c(c1C)C(=O)CC(c1cc(OC)ccc1OC)C2 (stereo unspecified)	i
